# A1 apoptosis 2 = A1 inhibition read as caspase activation; caspase activation, % (concentration not given with the values); AID 2465; 24,000 tested, under 10 active; MEF A1-2A-BIM cells, caspase-Glo luminescence, 3 h; percent of clofoctol response, DMSO zero; in the data active = caspase activation above about 5.9%; inconclusive = no clear call, values can overlap the other calls; inactive = below about 2.2%;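 also: wells of about 30 µL received 50 nL stock; the first replicate is given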
#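 Evaluation: Caspase-3/7 activity from luminescence increase | Assay system: A1-2A-BIM mouse embryonic fibroblasts | Quantity: 2500 MEF cells/well | Medium: RPMI-1640 plus 10% FBS | Detection: Caspase-Glo 3/7 luminescence, 1 h at room temperature | Dosing: 50 nL compound per well, pinned | Timing: Cells settled overnight, compound exposure 3 h at 37 °C, 5% CO2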
# * marks the source's active call; other numbers are inactive results; ? = inconclusive.
SMILES,A1 apoptosis 2
C[C@H]1CN([C@@H](C)CO)C(=O)c2cccc(NC(=O)C3CCOCC3)c2O[C@@H]1CN(C)CC1CC1,0.8
C[C@@H]1CN([C@H](C)CO)C(=O)Cc2cc(NC(=O)CCCCCC(=O)Nc3ccccc3N)ccc2O[C@H]1CN(C)CC1CCCCC1,-0.1
C[C@@H]1CN([C@H](C)CO)C(=O)c2cc(NC(=O)Nc3ccc(C(F)(F)F)cc3)ccc2O[C@@H](C)CCCCO[C@H]1CN(C)C(=O)Nc1ccc(C(F)(F)F)cc1,1.7
C[C@@H]1CN([C@H](C)CO)C(=O)Cc2cc(NS(=O)(=O)c3cccs3)ccc2O[C@H]1CN(C)Cc1ccc(C(=O)O)cc1,1.2
C[C@H]1CN([C@@H](C)CO)C(=O)c2cccc(NS(=O)(=O)c3cccs3)c2O[C@@H]1CN(C)C(=O)Nc1ccc(C(F)(F)F)cc1,1.8
C[C@@H]1CN([C@@H](C)CO)C(=O)Cc2cc(NS(=O)(=O)c3ccc(Cl)cc3)ccc2O[C@H]1CN(C)Cc1ccc(C(=O)O)cc1,-0.5
C[C@@H]1CN([C@H](C)CO)C(=O)c2cc(NS(=O)(=O)c3ccccc3)ccc2O[C@@H](C)CCCCO[C@@H]1CN(C)S(=O)(=O)c1ccccc1,-1.4
C[C@H](CO)N1C[C@H](C)[C@H](CN(C)C(=O)c2ccncc2)OCCCC[C@H](C)Oc2ccc(NC(=O)Cc3ccccc3)cc2C1=O,1.3
C[C@@H]1CN([C@H](C)CO)C(=O)c2cccc(NC(=O)c3cnccn3)c2O[C@@H]1CN(C)CC1CC1,0.5
C[C@@H]1CN([C@@H](C)CO)C(=O)Cc2cc(NC(=O)Nc3cccc4ccccc34)ccc2O[C@H]1CN(C)Cc1ccc(C(F)(F)F)cc1,0.5
NC(=O)NCC#Cc1ccc2c(c1)[C@]1(C(=O)N2)[C@H](C(=O)N2CCCCCCC2)[C@H]2C(=O)O[C@H](c3ccccc3)[C@H](c3ccccc3)N2[C@@H]1c1ccc(O)cc1,0.6
C[C@H]1CN([C@@H](C)CO)C(=O)c2cc(NC(=O)Nc3ccc(C(F)(F)F)cc3)ccc2O[C@@H]1CN(C)Cc1ccc(C(F)(F)F)cc1,?
C[C@H](CO)N1C[C@H](C)[C@H](CN(C)C(=O)NC2CCCC2)Oc2ncc(-c3cccc(C(F)(F)F)c3)cc2C1=O,0.5
CC(C)NC(=O)[C@@]1(Cc2ccccc2I)c2ccccc2C(=O)N(Cc2ccccc2C(F)(F)F)[C@H]1c1ccc(CO)cc1,-0.3
Cc1cc(C(=O)Nc2cccc3c2O[C@@H](CN(C)Cc2ccc(-c4ccccc4)cc2)[C@H](C)CN([C@H](C)CO)C3=O)n(C)n1,-1.7
COc1ccc(S(=O)(=O)Nc2ccc3c(c2)CC(=O)N([C@H](C)CO)C[C@@H](C)[C@H](CN(C)S(=O)(=O)c2cn(C)cn2)O3)cc1,0.8
C[C@H](CO)N1C[C@H](C)[C@H](CN(C)S(C)(=O)=O)Oc2ccc(NC(=O)CCCCCC(=O)Nc3ccccc3N)cc2C1=O,-0.3
COc1ccc(S(=O)(=O)Nc2ccc3c(c2)C(=O)N([C@@H](C)CO)C[C@H](C)[C@@H](CN(C)S(=O)(=O)c2ccc(OC)cc2)OCCCC[C@@H](C)O3)cc1,0.0
COC(=O)CCCCCCC(=O)N/N=C/c1ccccc1OCCO,0.9
C[C@H]1CCCCO[C@H](CN(C)S(=O)(=O)c2ccc(Cl)cc2)[C@@H](C)CN([C@@H](C)CO)C(=O)c2cc(NC(=O)CCC(F)(F)F)ccc2O1,-1.1
C[C@@H]1CCCCO[C@@H](CN(C)C(=O)Nc2ccccc2)[C@@H](C)CN([C@H](C)CO)C(=O)c2cc(NC(=O)Nc3ccc4c(c3)OCO4)ccc2O1,1.0
C[C@H]1CN([C@@H](C)CO)C(=O)c2cc(NC(=O)Nc3cccc4ccccc34)ccc2O[C@@H]1CN(C)Cc1ccc(C(=O)O)cc1,-0.8
CC(C)NC(=O)Nc1ccc2c(c1)C(=O)N([C@@H](C)CO)C[C@@H](C)[C@H](CN(C)S(=O)(=O)c1ccccc1)OCCCC[C@@H](C)O2,1.1
C[C@H]1CN([C@@H](C)CO)C(=O)c2cccc(NC(=O)CCCCCC(=O)Nc3ccccc3N)c2O[C@H]1CN(C)CC1CCCCC1,2.2
C[C@H](O)[C@H](O)[C@@H](O)[C@@H](O)/C=N/NC(=O)CCCCCC(=O)Nc1ccccc1O,0.3
CNC[C@H]1OCCCC[C@H](C)Oc2ccc(NS(=O)(=O)c3ccc(OC)cc3)cc2C(=O)N([C@@H](C)CO)C[C@@H]1C,0.0
Cc1ccc(S(=O)(=O)Nc2ccc3c(c2)C(=O)N([C@H](C)CO)C[C@H](C)[C@H](CN(C)Cc2ccccc2)OCCCC[C@@H](C)O3)cc1,-1.2
Cc1ccc(S(=O)(=O)N(C)C[C@@H]2OCCCC[C@@H](C)Oc3ccc(NC(=O)c4ccccc4)cc3C(=O)N([C@@H](C)CO)C[C@H]2C)cc1,1.9
COc1ccc(NC(=O)N(C)C[C@H]2Oc3c(NC(=O)Nc4c(C)noc4C)cccc3C(=O)N([C@@H](C)CO)C[C@@H]2C)cc1,1.7
COc1ccc(CN(C)C[C@H]2OCCCC[C@@H](C)Oc3ccc(NC(=O)Nc4ccc(C(F)(F)F)cc4)cc3C(=O)N([C@@H](C)CO)C[C@@H]2C)cc1,0.2
CC(C)NC(=O)Nc1ccc2c(c1)C(=O)N([C@@H](C)CO)C[C@@H](C)[C@@H](CN(C)C(=O)NC1CCCCC1)OCCCC[C@@H](C)O2,0.7
C[C@@H]1CN([C@H](C)CO)C(=O)c2cccc(NC(=O)c3nc4ccccc4s3)c2O[C@@H]1CN(C)Cc1ccccc1,-0.6
C[C@@H]1CCCCO[C@@H](CN(C)Cc2ccc3c(c2)OCO3)[C@@H](C)CN([C@@H](C)CO)C(=O)c2cc(NS(C)(=O)=O)ccc2O1,-1.0
C[C@@H]1CN([C@H](C)CO)C(=O)CCCn2cc(nn2)CO[C@@H]1CN(C)S(=O)(=O)c1ccc(Oc2ccccc2)cc1,-1.3
C[C@@H]1CN([C@@H](C)CO)C(=O)CCCn2cc(nn2)CO[C@@H]1CN(C)C(=O)Nc1ccnc(N2CCOCC2)c1,0.0
C[C@H]1CN([C@@H](C)CO)C(=O)Cc2cc(NS(=O)(=O)c3cccs3)ccc2O[C@H]1CN(C)C(=O)Nc1ccccc1,0.8
C[C@@H]1CN([C@H](C)CO)C(=O)c2cc(NS(=O)(=O)c3ccc(Cl)cc3)ccc2O[C@@H](C)CCCCO[C@@H]1CN(C)C(=O)c1ccccc1,0.2
C[C@@H]1CN([C@@H](C)CO)C(=O)c2cccc(NC(=O)Nc3ccc(C(F)(F)F)cc3)c2O[C@@H]1CN(C)Cc1ccncc1,-0.4
C[C@H]1CN([C@@H](C)CO)C(=O)c2cc(NC(=O)CCCCCC(=O)Nc3ccccc3N)ccc2O[C@H]1CN(C)Cc1ccc(Cl)c(Cl)c1,-0.7
Cc1noc(C)c1NC(=O)N(C)C[C@H]1Oc2ccc(NS(=O)(=O)c3ccccc3)cc2CC(=O)N([C@@H](C)CO)C[C@@H]1C,-0.3
CCO[C@H]1OC(C(=O)N2CCCCCCC2)=C[C@@H](C2CC2)[C@@H]1CCCO,1.0
C[C@H]1CN([C@@H](C)CO)C(=O)c2cccc(NS(C)(=O)=O)c2O[C@H]1CN(C)Cc1ccncc1,0.2
COc1ccc(S(=O)(=O)N(C)C[C@@H]2OCCCC[C@@H](C)Oc3ccc(NC(=O)c4ccccc4)cc3C(=O)N([C@@H](C)CO)C[C@H]2C)cc1,1.5
C[C@@H]1CN([C@H](C)CO)C(=O)c2cc(NS(C)(=O)=O)ccc2O[C@H]1CN(C)CC1CC1,-0.2
COc1ccc(NC(=O)Nc2ccc3c(c2)C(=O)N([C@H](C)CO)C[C@H](C)[C@@H](CN(C)S(=O)(=O)c2ccc(OC)cc2)OCCCC[C@H](C)O3)cc1,0.8
C[C@@H]1CN([C@H](C)CO)C(=O)c2cc(NC(=O)C3CCCCC3)ccc2O[C@@H](C)CCCCO[C@H]1CN(C)Cc1ccc(C(=O)O)cc1,0.5
Cc1noc(C)c1NC(=O)Nc1ccc2c(c1)C(=O)N([C@@H](C)CO)C[C@H](C)[C@@H](CN(C)C)OCCCC[C@@H](C)O2,1.7
C[C@@H]1CCCCO[C@@H](CN(C)C(=O)Nc2ccccc2)[C@H](C)CN([C@H](C)CO)C(=O)c2cc(NS(=O)(=O)c3ccccc3)ccc2O1,0.8
C[C@@H]1CN([C@H](C)CO)C(=O)c2cc(NC(=O)CCCN(C)C)ccc2O[C@H]1CN(C)C,0.4
C[C@@H]1CN([C@@H](C)CO)C(=O)c2cccc(NS(=O)(=O)c3cn(C)cn3)c2O[C@@H]1CN(C)Cc1ccc(C(F)(F)F)cc1,-0.5
# More compounds follow.
SMILES,A1 apoptosis 2
C[C@@H]1CCCCO[C@@H](CN(C)C(=O)Nc2ccc(C(F)(F)F)cc2)[C@H](C)CN([C@@H](C)CO)C(=O)c2cc(NC(=O)Nc3ccc4c(c3)OCO4)ccc2O1,0.6
C[C@@H]1CN([C@@H](C)CO)C(=O)c2cc(NC(=O)Nc3ccc(F)cc3)ccc2O[C@@H](C)CCCCO[C@@H]1CN(C)C,-1.1
C[C@@H]1CN([C@H](C)CO)C(=O)c2cccc(NS(=O)(=O)c3ccc(Cl)cc3)c2O[C@@H]1CN(C)Cc1ccccc1,0.4
C[C@@H]1CN([C@@H](C)CO)C(=O)c2cc(NS(=O)(=O)c3ccc(F)cc3)ccc2O[C@@H](C)CCCCO[C@H]1CN(C)C,0.3
C[C@@H]1CN([C@@H](C)CO)C(=O)c2cccc(NS(=O)(=O)c3ccc(Cl)cc3)c2O[C@H]1CN(C)Cc1ccccc1,-0.2
CC(C)NC(=O)N(C)C[C@H]1Oc2ccc(NC(=O)Nc3ccc(F)cc3)cc2C(=O)N([C@H](C)CO)C[C@H]1C,-2.0
O=C(NC1CC1)C1=C[C@@H](c2coc3ccccc3c2=O)C[C@@H](OCc2ccc(CO)cc2)O1,0.4
COc1ccc(S(=O)(=O)N(C)C[C@H]2Oc3ccc(NC(=O)NC(C)C)cc3CC(=O)N([C@H](C)CO)C[C@H]2C)cc1,0.7
C[C@H](CO)N1C[C@H](C)[C@@H](CN(C)Cc2ccc3c(c2)OCO3)Oc2c(NC(=O)Nc3ccc(F)cc3)cccc2C1=O,-0.3
Cc1noc(C)c1S(=O)(=O)N(C)C[C@H]1OCCCC[C@@H](C)Oc2ccc(NS(=O)(=O)c3ccc(Cl)cc3)cc2C(=O)N([C@H](C)CO)C[C@@H]1C,0.5
C[C@@H]1CN([C@@H](C)CO)C(=O)c2cc(NC(=O)Nc3ccccc3)ccc2O[C@H]1CN(C)S(=O)(=O)c1ccc(F)cc1,-0.5
O=C(CCCCCCC(=O)Nc1ccccc1O)N/N=C/c1ccc(N(c2ccccc2)c2ccccc2)cc1,-0.2
C[C@@H]1CCCCO[C@H](CN(C)C(=O)C2CCCCC2)[C@H](C)CN([C@@H](C)CO)C(=O)c2cc(NC(=O)Nc3ccccc3)ccc2O1,-1.4
C[C@@H]1CCCCO[C@H](CN(C)S(=O)(=O)c2ccccc2)[C@H](C)CN([C@H](C)CO)C(=O)c2cc(NS(C)(=O)=O)ccc2O1,-0.7
C[C@@H]1CCCCO[C@H](CN(C)C(=O)c2ccncc2)[C@@H](C)CN([C@H](C)CO)C(=O)c2cc(NS(=O)(=O)c3ccccc3)ccc2O1,-0.4
C[C@@H]1CCCCO[C@H](CN(C)C(=O)CCCN(C)C)[C@H](C)CN([C@@H](C)CO)C(=O)c2cc(NS(C)(=O)=O)ccc2O1,0.4
C[C@H](CO)N1C[C@H](C)[C@H](CN(C)Cc2ccncc2)Oc2ncc(-c3ccccc3)cc2C1=O,-0.5
CNC[C@H]1Oc2ccc(NC(=O)CCC(F)(F)F)cc2CC(=O)N([C@H](C)CO)C[C@H]1C,0.3
O=C(OC[C@@H]1[C@H]2c3ccccc3O[C@]1(CO)N=C1Sc3ccc([N+](=O)[O-])cc3C(=O)N12)c1ccccc1,-0.3
C[C@@H]1CCCCO[C@@H](CN(C)S(=O)(=O)c2ccc(F)cc2)[C@H](C)CN([C@H](C)CO)C(=O)c2cc(NS(=O)(=O)c3ccc(F)cc3)ccc2O1,0.7

# Some of these compounds in order of heavy-atom count, descending.
SMILES,A1 apoptosis 2
C[C@@H]1CCCCO[C@@H](CN(C)S(=O)(=O)c2ccc(F)cc2)[C@H](C)CN([C@H](C)CO)C(=O)c2cc(NS(=O)(=O)c3ccc(F)cc3)ccc2O1,0.7
C[C@@H]1CCCCO[C@H](CN(C)C(=O)c2ccncc2)[C@@H](C)CN([C@H](C)CO)C(=O)c2cc(NS(=O)(=O)c3ccccc3)ccc2O1,-0.4
C[C@@H]1CCCCO[C@H](CN(C)S(=O)(=O)c2ccccc2)[C@H](C)CN([C@H](C)CO)C(=O)c2cc(NS(C)(=O)=O)ccc2O1,-0.7
C[C@@H]1CCCCO[C@H](CN(C)C(=O)CCCN(C)C)[C@H](C)CN([C@@H](C)CO)C(=O)c2cc(NS(C)(=O)=O)ccc2O1,0.4
O=C(CCCCCCC(=O)Nc1ccccc1O)N/N=C/c1ccc(N(c2ccccc2)c2ccccc2)cc1,-0.2
CNC[C@H]1Oc2ccc(NC(=O)CCC(F)(F)F)cc2CC(=O)N([C@H](C)CO)C[C@H]1C,0.3

# High-throughput results from PubChem.

# A portion of the library, so the mix of outcomes need not match the whole.
